Cruzain inh noDet: blocks cruzain activity in detergent-free assay; P25779; purified cruzain, Z-FR-AMC fluorescence, no detergent; Potency, µM, inactives show max response, negative = inhibition, hits mostly inhibitors; actives 2.3% (n = 200,000); active = well fitted curve in the direction sought with a large enough effect; inconclusive = small, poorly fitted or top-dose-only effect, or another doubt; inactive = no such curve, though single readings can be large; an effect the other way counts as inactive or inconclusive;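 note: plate controls were enzyme without inhibitor for no effect and buffer without enzyme for full effect; nearly all actives have a fitted effect of over 40% in size; top concentration of the series not given in the record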
Target sequence (P25779 123-467 limits assumed): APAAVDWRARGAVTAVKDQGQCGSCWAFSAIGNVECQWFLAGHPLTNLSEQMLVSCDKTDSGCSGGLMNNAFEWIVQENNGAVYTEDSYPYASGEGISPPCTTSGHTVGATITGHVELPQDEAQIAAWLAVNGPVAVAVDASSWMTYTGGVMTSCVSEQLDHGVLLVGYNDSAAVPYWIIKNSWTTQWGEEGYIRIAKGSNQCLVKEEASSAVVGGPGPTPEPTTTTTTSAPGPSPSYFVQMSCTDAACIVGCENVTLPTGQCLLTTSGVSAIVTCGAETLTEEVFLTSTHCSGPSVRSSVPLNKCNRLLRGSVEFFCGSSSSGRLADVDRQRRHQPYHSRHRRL
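Purified cruzain at 1.5 nM, pre-incubated 15 min with compound at room temperature in 100 mM sodium acetate pH 5.5, 5 mM DTT, 0.00005% Triton X-100. Reaction started with 2 uM Z-FR-AMC; AMC fluorescence increase over 60 s gives rate.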
Cruzain inh Det: cruzain (T. cruzi) inhibition with detergent; P25779; Potency, µM, inactives show max response, negative = inhibition, usual class: inhibitors; purified cruzain, Z-FR-AMC fluorescence, 0.01% Triton; AID 1478; actives 0.43% (n = 200,000); active = well fitted curve in the direction sought with a large enough effect; inconclusive = small, poorly fitted or top-dose-only effect, or another doubt; inactive = no such curve, though single readings can be large; an effect the other way counts as inactive or inconclusive;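 note: plate controls were neutral wells for no effect and buffer without enzyme for full effect; nearly all actives have a fitted effect of over 40% in size; top concentration of the series not given in the record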
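15 min RT preincubation of 1.5 nM cruzain with compound, then 2 uM Z-FR-AMC added; kinetic AMC fluorescence, 60 s delta. Triton X-100 0.01%, pH 5.5.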
RE007 growth inh: less growth of the S. pombe RE007 Vpr strain. S. pombe RE007 Vpr strain, BacTiter-Glo ATP luminescence, 24 h; control for the full effect not named in the record. Potency, µM (series often up to 92.2 µM), inactives show top-dose activity change, negative = less growth. actives 0.21% (n = 360,000); active = well fitted falling curve with a large enough effect; inconclusive = small, poorly fitted or top-dose-only effect; inactive = no such curve, though single readings can be large or run the other way;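 note: % is set by controls: 0 for no effect and ±100 for the full control effect; nearly all actives have a fitted effect of over 50% in size; the assay follows cell death caused by Vpr and the record does not say whether a fall means rescue or toxicity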
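Fission yeast RE007 carrying one integrated HIV-1 vpr copy, seeded at OD 0.01 in PMG+AL medium with 23 nL pinned compound. Grown 24 h at 30 degrees; viability read by BacTiter-Glo luminescence after 5 min.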
2A StopGo: lowers the luciferase signal of an FMDV 2A StopGo reporter. human cells with a luciferase reporter of 2A StopGo recoding; control for the full effect not named in the record. Potency, µM (doses to about 57.9 µM), without a hit: at the top dose signal change, negative = less light. actives 1.2% (n = 410,000); active = well fitted falling curve with a large enough effect; inconclusive = small, poorly fitted or top-dose-only effect; inactive = no such curve, though single readings can be large or run the other way; tested in HEK293T cells; note: % is set by controls: 0 for no effect and ±100 for the full control effect; nearly all actives have a fitted effect of over 45% in size; luciferase light after 4 h
LASV entry inh: blocks Lassa virus binding to or entry into cells | AID 540256 | Potency, µM (highest dose often 37.9 µM), for inactives: at the highest dose activity change, negative = inhibition, usual class: inhibitors | actives 1.2% (n = 300,000) | Lassa virus pseudotype entry inhibition, cell reporter; control for the full effect not named in the record; active means well fitted inhibition curve with a large enough effect; inconclusive means small, poorly fitted or top-dose-only effect, or effect the other way; inactive means flat fitted curve, though single readings scatter; tested in HEK293 cells; note: % is set by controls: 0 for no effect and ±100 for the full control effect; nearly all actives have a fitted effect of over 50% in size; luciferase read-out
NS1 function inh: influenza NS1 inhibition. S. cerevisiae slowed by influenza A NS1, growth recovery by OD600. actives 0.4% (n = 270,000). Potency, µM (series often up to 46.1 µM), for the others: at the highest dose activity, positive = more growth. AID 2326; note: actives are rising curves; nearly all actives have a fitted effect of over 50% in size
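S. cerevisiae expressing influenza A NS1, grown in glucose, washed, then diluted 1:100 into pH 6.0 -URA galactose medium with 23 nl compound. Growth recovery read as OD600; NS1-free strain serves as control.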
MARV entry inh: Marburg virus entry inhibition; Marburg virus pseudotyped entry inhibition, cell reporter; control for the full effect not named in the record; about a third of the inactives were read at about 46 µM; Potency, µM (highest dose often 37.8 µM), for inactives: top-dose activity change, negative = inhibition, most hits filed as inhibitors; AID 540276; actives 1.8% (n = 300,000); active = well fitted inhibition curve with a large enough effect; inconclusive = small, poorly fitted or top-dose-only effect, or effect the other way; inactive = flat fitted curve, though single readings scatter; tested in HEK293 cells; about a fifth of its hits are not listed in these tables; note: % is set by controls: 0 for no effect and ±100 for the full control effect; luciferase read-out
SARS PLP yeast: blocks SARS-CoV papain-like protease in a yeast assay; Potency, µM (titrated, usually from 32.9 µM), without a hit: top-dose activity, positive = growth rescue; AID 485353; actives 0.19% (n = 330,000); S. cerevisiae expressing SARS-CoV PLpro, growth rescue; control for the full effect not named in the record; note: 0% is about no effect; nearly all actives have a fitted effect of over 55% in size; growth read by luminescence after 48 h
* hit, by the source's call; u = inconclusive; x = no result given; & = joins results of further samples; [ ] = another dose, or the depositor's remark. Unless noted, calls come from the whole dose curve; as a rule, active means well fitted rising curve with a large enough effect; inconclusive means small, poorly fitted or top-dose-only effect; inactive means no such curve, though single readings can be large or run the other way. Potency is the fitted concentration of half-maximal effect. Compounds as they come. Share with any hit: about 4.5%.

Value order – Cruzain inh noDet, Cruzain inh Det, RE007 growth inh, 2A StopGo, LASV entry inh, NS1 function inh, MARV entry inh, SARS PLP yeast
> NC(=O)c1nnn(-c2ccccc2)c1N
→ x, x, 6.0%, 4.8%, -26.7%[46.1 µM], 2.3%, 10.4%[46.1 µM], 0.1%
> CC1(C)Oc2ccc(NC(=O)C3COc4ccccc4O3)cc2O1 (centres undefined)
→ 2.3%, -7.6%, -18.9%, -79.1%, u, -184.0%, u, -29.3%
> O=C(CSc1nc2c(cnn2-c2ccccc2)c(=O)[nH]1)N1CCCCC1
→ x, x, -12.7%, -13.7%, 10.3%[46.1 µM], -7.2%, -4.7%[46.1 µM], -0.5%
> CCOC(=O)N1CCN(C(=O)CN(c2ccc(Oc3ccccc3)cc2)S(C)(=O)=O)CC1
→ u, 0.2%, 7.4%, u, -29.7%, -12.0%, -25.8%&-25.8%, 2.7%
> O=C(CNC(=O)/C(=C\c1ccc(F)cc1)NC(=O)c1ccccc1)OCc1ccccc1
→ u, 17.8µM*, -11.1%, -18.3%, 11.6%, -3.4%, 5.8%, 1.6%
> CCC(CC)NC(=O)COC(=O)CCC(=O)c1ccc(Cl)cc1
→ x, x, 2.3%, 6.6%, 4.5%, x, 2.3%[46.1 µM], -3.3%
> O=C(CCl)Nc1ccccc1Sc1ccccc1
→ 1.5%, -1.5%, 3.7%, u, u, -8.1%, u, 12.6µM*
> COc1ccc2c(c1)cc1c(=O)n(CC(=O)NCCCOC(C)C)nc(C)n12
→ -2.8%, 0.3%, 1.4%, 0.7%&-10.3%, x, 1.0%, 7.4%[46.1 µM], 1.5%
> C=CCn1c(CCNC(=O)c2ccccc2F)nnc1SCC(=O)Nc1ccc(OC)cc1
→ x, x, 2.2%, -8.3%, u, -2.7%, -6.1%[46.1 µM], 0.7%
> CCC(C)(C)NC(=O)C(c1ccccc1F)N(C(=O)c1ccn[nH]1)c1ccccc1 (centres undefined)
→ -2.9%, -5.2%, -8.3%, u, -2.8%, -6.0%, 21.5%[46.1 µM], 1.9%
> CCCCCCCC1CC(CSc2ncn[nH]2)OC1=O (centres undefined)
→ 8.7%, -3.3%, -1.3%, -7.7%, -9.3%, -6.8%, -14.2%, -5.9%
> CCN(CC(=O)NC(C)C)Cc1nc2c(Br)cc(Br)cc2c(=O)[nH]1
→ x, x, -1.8%, -17.1%, x, -1.2%, x, 0.0%
> O=C(CNC(=O)c1cccs1)OCC(=O)c1ccccc1Cl
→ x, x, -17.9%, 2.4%, 6.9%, x, 14.1%[46.1 µM], 2.1%
> CC(C)N(Cc1nccn1C)C(=O)c1ccc2oc(CCCc3ccccc3)nc2c1
→ x, x, 15.1%, -28.7%, -30.0%, 9.1%, u, 6.6%
> O=C1c2ccc(Oc3ccc4c(c3)C(=O)N(CCCO)C4=O)cc2C(=O)N1CCCO
→ 17.3%, 5.2%, -0.3%, u, 7.8%, 3.6%, 20.7%, 8.7%

Individual results from the entries so far:
Entry for COc1ccc2c(c1)cc1c(=O)n(CC(=O)NCCCOC(C)C)nc(C)n12 in SARS PLP yeast: 1.5%
Entry for CCOC(=O)N1CCN(C(=O)CN(c2ccc(Oc3ccccc3)cc2)S(C)(=O)=O)CC1 in SARS PLP yeast: 2.7%

Additional structures.
Value order – Cruzain inh noDet, Cruzain inh Det, RE007 growth inh, 2A StopGo, LASV entry inh, NS1 function inh, MARV entry inh, SARS PLP yeast
> CCCNS(=O)(=O)c1cc2c3c(c1)C(C)C(=O)N3CCC2 (centres undefined)
→ x, x, 4.0%, 34.7%[activator], x, 7.5%, x, -2.2%
> COc1ccc(C(c2sc3nc(C)nn3c2O)N2CCC(C(N)=O)CC2)cc1OC (centres undefined)
→ -0.9%, -7.0%, -2.6%, -14.6%, x, -43.5%, -0.1%, -0.4%
> C(=N\N1CCN(c2ccccc2)CC1)/c1ccccc1
→ x, x, -1.1%, 66.2%[activator], 1.6%, x, u, -0.8%
> CCCCn1c(=N)n(CC(=O)c2ccc(Br)s2)c2ccccc21
→ x, x, 1.8%, 0.0%, x, -3.7%, x, 0.3%
> CCN(c1ccc(C)cc1C)S(=O)(=O)c1nnc(NC(=O)C(C)(C)C)s1
→ x, x, -8.8%, -25.7%, u, -21.0%, u, -0.3%
> Cc1cc(=O)oc2cc(OCCSCCN3CCCC3)ccc12
→ x, x, -9.2%, 3.4%, 6.4%, -8.0%, 12.1%, 0.7%
> Cn1c(-c2cccs2)[n+](C)c2ccccc21
→ x, x, -24.1%, -5.3%, 9.4%[46.1 µM], x, u, -3.0%
> CCC(=O)N1c2ccc(S(=O)(=O)CCC(=O)NCc3ccccc3OC)cc2CC1C (centres undefined)
→ -12.2%, -1.1%, x, -2.9%, 17.6%[46.1 µM], x, 2.3%[46.1 µM], x
> Cc1ccc(CC(NC(=O)c2ccccc2)C(=O)NC(C)C(=O)O)cc1 (centres undefined)
→ -2.5%, -2.1%, 10.2%, 7.5%, 3.7%, -3.1%, 28.1%, -4.8%
> Cn1nc(C(F)(F)F)c(C(=O)Nc2cccc(C(F)(F)F)c2)c1SCc1ccc(Cl)cc1
→ 7.9%, -4.6%, 1.2%, 0.0%, -26.9%, 5.3%, u, -8.4%
> COc1ccc(Cl)cc1N1C(=O)C2CCCN2C1c1ccc(F)c(F)c1 (centres undefined)
→ -6.6%, 0.6%, -9.7%, u, x, -33.5%, x, 5.2%
> O=C(c1ccco1)N1CCN(Cc2cc(=O)c(OCc3cccc(Cl)c3)co2)CC1
→ x, x, 13.6%, 10.2%, -18.7%, x, 13.8%[46.1 µM], 1.2%
> CCC(=O)N/N=C/c1ccc(-c2ccc(Cl)cc2)o1
→ x, x, 12.1%, 40.2%[activator], 10.6%, -3.4%, 10.8%[46.1 µM], -1.8%
> O=C(NCC1COc2ccccc2O1)c1ccc(NC(=O)c2ccco2)cc1 (centres undefined)
→ u, -1.7%, 28.5%, -14.0%, -19.0%, -1.3%, u, -1.6%
> N/C(=N\OC(=O)CCC1CCCC1)c1ccc(Cl)cc1
→ x, x, -18.1%, 1.6%, x, -28.7%, x, -8.9%

Filtered by structure, the entries above containing bromine (2)
Value order – Cruzain inh noDet, Cruzain inh Det, RE007 growth inh, 2A StopGo, LASV entry inh, NS1 function inh, MARV entry inh, SARS PLP yeast
> CCN(CC(=O)NC(C)C)Cc1nc2c(Br)cc(Br)cc2c(=O)[nH]1
→ x, x, -1.8%, -17.1%, x, -1.2%, x, 0.0%
> CCCCn1c(=N)n(CC(=O)c2ccc(Br)s2)c2ccccc21
→ x, x, 1.8%, 0.0%, x, -3.7%, x, 0.3%

Carrying on.
Value order – Cruzain inh noDet, Cruzain inh Det, RE007 growth inh, 2A StopGo, LASV entry inh, NS1 function inh, MARV entry inh, SARS PLP yeast
> O=[N+]([O-])c1cc(Cl)c(Cl)c(Cl)c1Cl
→ 2.4%, 1.5%, -23.9%, -12.5%, x, x, x, 1.6%
> Cc1ccccc1NC(=S)Nc1ccccn1
→ x, x, -14.3%, 24.8%, x, -32.1%, x, -2.9%
> COc1ccc(-c2c(C)nn3c(-c4ccccc4)cc(C)nc23)cc1
→ x, x, 4.0%, -29.1%, x, -0.6%, x, -1.1%
> Nc1cc(Nc2ccccc2)ccn1
→ x, x, 15.5%, -16.6%, -0.1%, x, -25.9%[46.1 µM], -0.4%
> Cc1ccc(C)c(Cn2c(=O)n(CCCCC(=O)NCc3ccccc3Cl)c(=O)c3ccccc32)c1
→ -0.9%, -3.6%, x, 0.0%, 6.1%[46.1 µM], x, -0.7%[46.1 µM], x
> Cc1c(Cl)cccc1NC(=O)Cn1c(CCC(=O)O)ccc1-c1cccs1
→ 5.9%, -7.8%, x, 0.2%, 5.4%[46.1 µM], x, 5.6%[46.1 µM], x
> CCN(CC)S(=O)(=O)c1ccc(Cl)c(C(=O)NC(C)C(c2cccs2)N2CCCC2)c1 (centres undefined)
→ x, x, 2.1%, 4.8%, -3.6%, 6.1%, -15.5%[46.1 µM], 3.2%
> S=c1cnc2ccccc2[nH]1
→ x, x, 21.3%, -11.5%, -5.2%, 6.5%, -0.1%, -0.5%
> CCCNC(=O)CN(c1ccccc1)S(=O)(=O)c1ccc(OC)c(OC)c1
→ -2.0%, 2.4%, -0.5%, -3.1%, 11.4%, -0.4%, 0.3%, 1.8%
> COc1cc(NS(=O)(=O)c2cc(C)ccc2OC)c(OC)cc1Cl
→ -0.3%, -7.2%, 6.0%, 25.7%, -12.5%, -8.0%, u, 3.9%
> CCOc1ccc(N2CC(NS(=O)(=O)c3cccs3)CC2=O)cc1 (centres undefined)
→ x, x, 1.6%, -11.4%, 1.8%, x, 11.7%, 2.7%
> COC(=O)c1cc(S(=O)(=O)Nc2cc(OC)cc(OC)c2)cn1C
→ x, x, 8.2%, 59.5%[activator], x, 9.9%, x, 2.9%
> CCOc1cccc(OCCCOc2cccc3cccnc23)c1
→ -4.5%, -10.0%, x, -13.2%, 12.0%, -4.8%, -2.7%, 9.9%
> CCCCCCC1CC(C)(/C(C)=N/NC(N)=O)OC1=O (centres undefined)
→ -4.9%, 2.7%, -6.7%, 26.9%, 4.1%, 0.1%, -8.9%, -3.0%
> O=C(Nc1ccccc1Br)c1cc(CN2CCCC2)on1
→ -16.8%, -4.8%, x, 30.0%[activator], u, x, x, x
> COc1ccc(S(=O)(=O)Nc2ccccc2OC)cc1C
→ -14.2%, -1.0%, 7.8%, x, -15.0%, -37.9%, -20.3%, 5.4%
> COCCCN1C(=O)c2[nH]nc(-c3ccccc3O)c2C1c1ccc(OCc2ccccc2)cc1 (centres undefined)
→ u, -7.1%, x, u, x, x, u, x
> O=C(CNC(=O)c1ccccc1)N/N=C/c1cccs1
→ x, x, -14.8%, 5.6%, -3.6%[46.1 µM], 1.2%, 2.3%[46.1 µM], 0.1%
> O=C(O)CCCC(=O)NCCCc1ccccc1
→ -2.3%, -0.1%, -1.2%, 0.0%, 0.0%, 7.1%, 15.0%, 6.4%
> O=C(N/N=C/c1ccc2c(c1)OCO2)c1ccc(NC(=O)c2ccccc2Cl)cc1
→ x, x, 0.3%, -3.4%, u, 5.5%, -3.3%[46.1 µM], -0.5%

High-throughput results from PubChem.
